Screening results from PubChem.
2A firefly = FMDV 2A StopGo reporter, firefly signal; hit rate 0.23% among 120,000; Potency, µM (titrated, usually from 57.5 µM), for inactives: at the highest dose signal change, negative = less light; HEK cells with a luciferase reporter of 2A StopGo recoding; active = well fitted falling curve with a large enough effect; inconclusive = small, poorly fitted or top-dose-only effect; inactive = no such curve, though single readings can be large or run the other way; also: nearly all actives have a fitted effect of over 60% in size; overnight with compound
2A Renilla = lowers the Renilla signal of an FMDV 2A StopGo reporter; HEK cells with a luciferase reporter of 2A StopGo recoding; Potency, µM (highest dose often 57.5 µM), for inactives: top-dose signal change, negative = less light; hit rate 0.32% among 120,000; active means well fitted falling curve with a large enough effect; inconclusive means small, poorly fitted or top-dose-only effect; inactive means no such curve, though single readings can be large or run the other way; also: nearly all actives have a fitted effect of over 55% in size; overnight with compound
* marks the source's active call; other numbers are inactive results; u = inconclusive; & = joins results of further samples; [ ] = remark or other dose. % is scaled to controls: 0 for no effect and ±100 for the full control effect; potency is read from the fitted curve at half-maximal effect. The list is partial; the hit share may differ from the screen's.

Values run as follows: 2A firefly	2A Renilla
- CC(C)C(NC(=O)C(NC(=O)C1O[C@@H]2OC(C)(C)O[C@@H]2[C@H]2OC(C)(C)O[C@@H]12)C(C)C)C(=O)O (some centres not stated)
 : -7%	-4%[1.06 µM]
- COc1cc(NC(=O)c2cccc(Cl)c2)ccc1NC(=O)c1cc2ccccc2o1
 : 1%	-7%
- CC(NC(=O)C12CC3CC(CC(Cl)(C3)C1)C2)c1ccc(Cl)cc1 (configuration not stated)
 : -4%	14%
- CNc1oc(-c2ccco2)nc1S(=O)(=O)c1ccccc1
 : -12%	27%
- Cc1c(Cl)cccc1N(CC(=O)Nc1c(C)n(C)n(-c2ccccc2)c1=O)S(C)(=O)=O
 : -3%	-7%
- O=C(COc1ccccc1F)OCc1cc(=O)n2nc(C3CCCCC3)sc2n1
 : 15%&11%	-11%&-3%
- O=C(/C=C/Sc1ccccc1)Nc1ccccc1
 : 142%[activator]	13%
- Cc1ccccc1CN1CCCN(CC(=O)Nc2ccc(F)cc2)S1(=O)=O
 : 1%	3%
- Cc1cc(Cl)ccc1OCCCc1n[nH]c(=S)n1Cc1ccco1
 : u	-8%[1.06 µM]
- Cn1c(=O)c2c(nc(NCc3ccccc3)n2Cc2cccc(Br)c2)n(C)c1=O
 : u	-12%
- CCOC(=O)CSc1nc2cc3c(cc2c(=O)n1CCCCCC(=O)NCc1ccc2c(c1)OCO2)OCO3
 : 13%	-11%
- CCOc1ccccc1NC(=O)Cc1coc2c(C)c(C)ccc12
 : 30%	5%
- CC(C#N)(NC(=O)CSc1ccccn1)C1CC1 (configuration not stated)
 : 2%	-12%
- COc1cc(F)ccc1NC(=O)c1ccc2ccccc2n1
 : 148%[activator]	-6%
- COc1cc(NC(=O)Cn2c(=O)n(-c3ccccc3)c(=O)c3c4c(sc32)CCCC4)cc(OC)c1
 : -17%	-8%
- CCOCCc1nn2c(=O)cc(COC(=O)c3cccc(C)c3)nc2s1
 : -24%	-12%
- CCC(=O)Nc1c(-c2cc(=O)oc3ccc(Cl)cc23)oc2ccccc12
 : -4%	-3%
- Fc1cccc(Nc2nc(NCc3ccco3)nc3c2cnn3-c2ccccc2)c1
 : 41%[activator]	-2%
- Cc1ccc(C)c(N(C)S(=O)(=O)c2ccc3oc(=O)ccc3c2)c1
 : -3%	-15%
- COc1ccc(NC(=O)CCc2ncc(-c3ccccc3F)o2)cc1Cl
 : 4%	-13%
- CC1=C(C(=O)Nc2ccccc2)C(c2ccc(F)cc2)N2C(=O)CSC2=N1 (configuration not stated)
 : -1%	-3%
- CCOc1ccc(OCC)c(NC(=O)CN(C)S(=O)(=O)c2ccc3c(c2)CCCC(=O)N3)c1
 : -19%	-9%
- CCC(=O)N1N=C(c2ccccc2C)CC1c1ccc2nccnc2c1 (configuration not stated)
 : 0%	32%[activator]
- O=C(COc1ccc2c(c1)CCC2)NC1CCS(=O)(=O)C1 (configuration not stated)
 : 10%	-2%
- CCCN(CCC)CCCNC(=O)C1CCC(CNS(=O)(=O)c2cccc3nsnc23)CC1 (configuration not stated)
 : -15%	-9%
- CN(Cc1ccccc1)CC(C#N)C(O)c1ccccn1 (configuration not stated)
 : 22%	15%
- O=C(Cn1c(CO)cnc1SCc1c(F)cccc1Cl)NCc1ccccc1
 : 1%	11%
- COc1ccccc1N1CCN(C(=O)c2ccc(Nc3nc4ccccc4n4nnnc34)cc2)CC1
 : 59%[activator]	-20%
- Cc1cccc(C)c1OCCNC(=O)Cc1n[nH]c(=O)c2ccccc12
 : 1%	1%
- CC(=O)Nc1ccc(-c2csc(-c3ccccc3C)n2)cc1
 : 201%[activator]	20%
- CCOC(=O)c1ccc(NC(=O)CSc2nc(-c3ccc(OC)cc3)cc(C(F)(F)F)c2C#N)cc1
 : -8%	2%
- CCCNc1c(NC(=O)C2CC(=O)N(c3ccccc3)C2)c(=O)oc2ccccc12 (configuration not stated)
 : 15%	19%
- CCCOc1ccc(-c2nc3ccc(Br)cc3c(=O)o2)cc1
 : -1%	-11%
- COc1ccc(CNC(=O)c2oc3c(c2C)-c2nn(Cc4ccccc4Cl)cc2CC3)cc1
 : -10%	u
- COc1ccc(/C=C2\Oc3cc(OS(C)(=O)=O)ccc3C2=O)cc1OC
 : 5%	-12%
- COc1ccc(Cl)cc1N(C)C(=O)c1cc2c(=O)oc3ccc(C)cc3c2s1
 : -29%	-12%
- COc1ccc(-n2nc(C(=O)N3CCCC(C)C3)c3c4ccccc4n(C)c3c2=O)cc1 (configuration not stated)
 : 4%	22%
- CCCNC(=O)c1ccccc1-c1ncc(-c2ccccc2)o1
 : 2%	5%
- Cc1cccc(Cn2c(=O)n(CCCCC(=O)NCc3ccc4c(c3)OCO4)c(=O)c3ccccc32)c1
 : -8%	-1%
- Cc1cc(SC(C)C(=O)NC(=O)NC2CC2)nc2c(C)cccc12 (configuration not stated)
 : 21%	15%
- COc1ccc(C(=O)N(CCCN(C)C)c2nc3ccc(Cl)cc3s2)cc1OC
 : -19%	-19%
- Cc1ccc(S(=O)(=O)N2CCN(C(=O)N(C)C)C2C(C)C)cc1 (configuration not stated)
 : -1%	27%
- CCOc1ccccc1-c1cc(C(=O)O)c2ccccc2n1
 : 18%	-6%
- C=CCn1c(N2CCN(Cc3ccc(Br)cc3)CC2)nc2c1c(=O)[nH]c(=O)n2C
 : 8%	5%
- CCC(=O)N1CCc2cc(S(=O)(=O)NC(Cc3ccccc3)C(=O)Nc3ccccc3C)ccc21 (configuration not stated)
 : -3%	25%
- CCc1cccc(C)c1NC(=O)CN1C(=O)C2(SCC(=O)N2c2cc(C)cc(C)c2)c2ccccc21 (configuration not stated)
 : -20%	0%
- CS(=O)(=O)NCCC(=O)O
 : 0%	3%
- COc1ccc(C(=O)Oc2ccccc2C(C)=O)cc1Br
 : 0%	-5%
- Cc1cc(NC(=O)c2cc(-c3cccc(Cl)c3)on2)nn1Cc1ccc(Cl)cc1
 : -4%	-14%
- CCC(CO)NC(=S)Nc1cccc(C)c1 (configuration not stated)
 : 24%	15%
- Nc1nnnn1NCc1cc(Cl)ccc1OCc1ccc(Cl)cc1Cl
 : -28%	54%[activator]
- CCCN(Cc1nnc(-c2ccccc2Cl)o1)C(=O)c1ccc(F)cc1Cl
 : -33%	-27%
- COc1ccc2[nH]c(C)c(CCNCc3cccc(C(F)(F)F)c3)c2c1
 : u	u
- O=C(CC1C(=O)OCCN1Cc1ccccc1)Nc1cccc(Cl)c1 (configuration not stated)
 : 21%&-6%	69%&31%[activator]
- COc1cccc(Cn2c(NCc3ccc(C)cc3)nc3c2c(=O)n(C)c(=O)n3C)c1
 : -12%	-9%
- Cc1ccc(-c2nc(Cn3cnc4sccc4c3=O)co2)c(C)c1
 : 86%[activator]	16%
- CCOc1ccc(NC(=O)Cn2c(=O)n(CCCS(=O)(=O)C3CCCCC3)c(=O)c3ccccc32)cc1
 : -15%	-7%
- O=S(=O)(NC1=NCN(CCO)CN1)c1ccc(Br)cc1
 : -1%	-1%
- Cc1ccc(-c2cc(-c3ccc(C)cc3C)[nH]n2)c(C)c1
 : 46%[activator]	-5%[1.06 µM]
- COc1cccc(N2CCN(C(=O)C3CCN(S(=O)(=O)c4c(C)noc4/C=C/c4ccccc4F)CC3)CC2)c1
 : -22%	-1%

Quoted from above (three entries):
Values run as follows: 2A firefly	2A Renilla
- Cc1ccc(-c2nc(Cn3cnc4sccc4c3=O)co2)c(C)c1
 : 86%[activator]	16%
- CCOc1ccc(NC(=O)Cn2c(=O)n(CCCS(=O)(=O)C3CCCCC3)c(=O)c3ccccc32)cc1
 : -15%	-7%
- O=S(=O)(NC1=NCN(CCO)CN1)c1ccc(Br)cc1
 : -1%	-1%

Reprinted at random: seven entries already listed
Values run as follows: 2A firefly	2A Renilla
- Nc1nnnn1NCc1cc(Cl)ccc1OCc1ccc(Cl)cc1Cl
 : -28%	54%[activator]
- O=C(CC1C(=O)OCCN1Cc1ccccc1)Nc1cccc(Cl)c1 (configuration not stated)
 : 21%&-6%	69%&31%[activator]
- COc1cccc(N2CCN(C(=O)C3CCN(S(=O)(=O)c4c(C)noc4/C=C/c4ccccc4F)CC3)CC2)c1
 : -22%	-1%
- O=S(=O)(NC1=NCN(CCO)CN1)c1ccc(Br)cc1
 : -1%	-1%
- Cc1cc(NC(=O)c2cc(-c3cccc(Cl)c3)on2)nn1Cc1ccc(Cl)cc1
 : -4%	-14%
- COc1cccc(Cn2c(NCc3ccc(C)cc3)nc3c2c(=O)n(C)c(=O)n3C)c1
 : -12%	-9%
- COc1ccc(C(=O)Oc2ccccc2C(C)=O)cc1Br
 : 0%	-5%

The list continues:
Values run as follows: 2A firefly	2A Renilla
- CCCNC(=O)c1ccc2[nH]c(C)c(C)c2c1
 : 129%[activator]	13%
- O=C(CCc1ncc(-c2ccccc2)o1)Nc1ccncc1
 : 18%	9%
- Cc1oc(-c2ccccc2)nc1CC(=O)N1CCNC(=O)C1
 : 45%	26%
- Cc1c(Cl)cccc1N(CC(=O)NCCN1CCOCC1)S(=O)(=O)c1ccccc1
 : -11%	0%
- CCc1ccc(-c2cc(C)no2)cc1S(=O)(=O)Nc1ccc(Cl)cn1
 : -14%	136%[activator]
- O=C1CC(c2c[nH]c3ccccc23)c2c(c3ccccc3[nH]c2=O)O1 (configuration not stated)
 : -1%	-12%
- CC1CCCN(C(=O)c2cc(-c3cccnc3)nc3ccc(Cl)cc23)C1 (configuration not stated)
 : -3%	1%
- CC(=O)c1ccc(OC(=O)c2cnc(C)cn2)cc1
 : -3%	7%
- COc1cc2c(=O)c(S(=O)(=O)c3ccc(F)cc3)cn(Cc3ccccc3C)c2cc1OC
 : -5%	3%
- Cc1ccccc1Nc1c(-c2ccc(O)cc2)nc2c(C)cccn12
 : -3%	-12%
- Cc1cccc(C)c1NC(=O)CN1CCN(C(=O)CCc2ncc(-c3ccc(F)cc3)o2)CC1
 : 106%[activator]	-2%
- CCCc1nnc2sc(COc3ccc(Br)cc3)nn12
 : 5%	-5%
- CCCC(=O)Nc1nnc(S(=O)(=O)N2CCCCCC2)s1
 : 0%	23%
- O=C(O)CCn1cnc2onc(-c3ccccc3Cl)c2c1=O
 : 158%[activator]	61%[activator]
- CCCCCC(=O)N/N=C/c1ccc(C(C)C)cc1
 : 0%	9%
- CC(C)n1nc(C(=O)Nc2cccc(S(=O)(=O)N3CCCCCC3)c2)c2ccccc2c1=O
 : -8%	-3%
- Cn1nc(C(=O)Nc2ccnn2Cc2cccc(Cl)c2)c2ccccc2c1=O
 : 13%	105%[activator]
- Cc1oc(-c2ccccc2)nc1CC(=O)NCCc1ccc(F)cc1
 : 12%	-1%
- CC(C)Oc1ccc(NC(=O)CCc2c[nH]c3ccccc23)cc1
 : 40%[activator]	-6%
- Cc1cccc(C(=O)Nc2nc(-c3nnn(-c4cc(C)ccc4C)c3C)ns2)c1
 : u	-5%
- CN(Cc1ccccc1)C(=O)C(=O)c1c[nH]c2ccccc12
 : 34%[activator]	173%[activator]
- CCOc1ccc(NC(=O)Cc2c[nH]c3ccccc23)cc1
 : 56%[activator]	14%
- Cc1ccc(Cl)cc1NC(=O)C1CCN(c2nnc(C)c3c(C)n(-c4ccccc4)nc23)CC1
 : -10%	-1%
- CCc1ccc(-c2noc(CSc3ccc(S(=O)(=O)N4CCN(C)CC4)cn3)n2)cc1
 : 6%	-30%
- OC(CN(CC1CCOC1)C1CC1)c1ccc(C(F)(F)F)cc1 (configuration not stated)
 : 14%	11%
- Cc1cccc(C(C)C)c1NC(=O)COC(=O)COc1ccc2c(C)cc(=O)oc2c1
 : 3%	-4%
- O=C(Nc1ccncc1)C1CCN(C(=O)c2ccc3ccccc3n2)CC1
 : 0%	10%
- COc1ccc(-c2ccc(=O)n(CC(=O)Nc3ccc(OC)c(OC)c3)n2)cc1
 : -15%	-16%
- O=C(O)c1cc(NC2(c3ccccc3)C(=O)c3ccccc3C2=O)ccc1Cl
 : -9%	-15%
- COc1ccccc1NC(=O)CCn1cnc2ccccc2c1=O
 : 19%	4%
- CC(=O)c1ccc(S(=O)(=O)NCCC(=O)N2CCN(CC(=O)Nc3cccc(F)c3)CC2)cc1
 : -9%	-18%
- Nc1c(Br)cc([N+](=O)[O-])cc1Br
 : 21%	9%
- COc1cc(/C=C(/C#N)c2ccccn2)ccc1OC(F)F
 : 117%[activator]	3%
- Cc1cc2c(c(=O)n1CCN(C)C)C(c1c(Cl)cccc1Cl)C(C#N)=C(N)O2 (configuration not stated)
 : 25%	30%[activator]
- CC(C)Sc1nc(N2CCOCC2)c2c(c1C#N)CCCC2
 : 9%	17%
- Cc1cccc(NC(=O)COc2ncnc3ccccc23)c1
 : 18%	-14%
- CC1CCCc2sc3nc(SCC(=O)c4ccc(Br)cc4)nc(N)c3c21 (configuration not stated)
 : 3%	6%
- CCN(CC(=O)NC)C(=O)c1n[nH]c(=O)c2ccccc12
 : 5%	-4%
- CN(C)c1ccc(CNC(=O)c2ccc(NC(=O)N3CCCCc4ccccc43)cc2)cc1
 : -8%	14%
- CCC1CCCCN1C(=O)Cn1cccc1-c1nc(-c2ccc(C)cc2)no1 (configuration not stated)
 : -1%	68%[activator]
- CCOC(=O)c1cnc2ccccc2c1Nc1ccc(OCC)cc1
 : -5%	-7%
- CC1CCC/C(=N/NC(=S)Nc2ccccc2)C1 (configuration not stated)
 : 159%[activator]	7%
- Cc1ccc(NC(=O)CSc2nc3ccccc3c3nc(CCn4cncc4C)nn23)c(C)c1
 : -15%	-9%
- COC(=O)CNC(c1ccccc1)c1cc(Br)ccc1NC(=O)c1ccccc1 (configuration not stated)
 : -6%	48%[activator]
- CC(C#N)Sc1nnc(-c2c[nH]c3ccccc23)n1C1CC1 (configuration not stated)
 : 16%	-6%
- N#C/C(=C/c1ccccc1OC(F)F)C(=O)Nc1ccccc1Oc1ccccc1
 : 10%	19%
